GIV-Gai inh = inhibitors of GIV peptide binding to Galpha-i3, primary screen, biochemical, fluorescence polarization, FITC-GIV GBA peptide, rat Galphai3 | 90 min; hits give low values; scaled: aluminum fluoride 0%, vehicle 100% | actives 0.42% (n = 210,000) | percent of control (FP), % (test concentration not listed) | AID 1224905, 2016;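 active means replicate mean at 85% of control or lower, very high polarization wells dropped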;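 further: wells of about 15 µL received 100 nL stock; the first replicate is given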
Target sequence (P08753 whole entry, looked up): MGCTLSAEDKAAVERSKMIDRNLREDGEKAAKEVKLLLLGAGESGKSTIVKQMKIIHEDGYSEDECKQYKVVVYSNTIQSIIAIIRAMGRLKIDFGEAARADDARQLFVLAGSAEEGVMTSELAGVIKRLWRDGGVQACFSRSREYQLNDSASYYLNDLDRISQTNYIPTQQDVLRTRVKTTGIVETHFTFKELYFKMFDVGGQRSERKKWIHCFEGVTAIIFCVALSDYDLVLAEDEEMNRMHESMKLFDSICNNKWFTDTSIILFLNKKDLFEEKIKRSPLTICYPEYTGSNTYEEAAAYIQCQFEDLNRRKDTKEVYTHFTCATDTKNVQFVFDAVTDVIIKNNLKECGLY
HCMV UL50-53 inh = inhibitors of HCMV UL50-UL53 interaction, biochemical, HTRF; HCMV UL50-UL53 nuclear egress complex (human cytomegalovirus); normalized percent inhibition; inhibition, % (test concentration not listed); actives 0.15% (n = 190,000); AID 1918969, 2023;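 active means both replicates at 50% or more, plus weaker picks with an unusually low signal ratio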;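 further: stock transfer was 100 nL into about 20 µL; 0% = negative control wells and 100% = wells with untagged competitor protein; inactives centre near -12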
Sa growth inh = S. aureus growth inhibition at 42 and 30 °C, primary screen, LtaS inhibitor project, RN4220, two temperatures. OD600, 20 h, 42 °C; hits give low values. relative growth, % (test concentration not listed). actives 0.53% (n = 170,000);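 active means growth at 42 °C up to 50% and 20 or more points under that at 30 °C, or under 10% at both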;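 further: 300 nL library stock went into each well; scaled to the means of positive and negative controls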
Sa growth inh second temp = further read-out of Sa growth inh, marked with its call; relative growth, %; measured here: growth at 30 °C;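 optical density after 20 h as mean of two plates; 100% = untreated growth and lower means inhibition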
* hit, by the source's call; / = not tested or not shown; & = joins results of further samples.

SMILES	GIV-Gai inh	HCMV UL50-53 inh	Sa growth inh	Sa growth inh second temp
COc1ccc(-c2nnc(SC(C)c3nnc(-c4cccs4)o3)o2)cc1 (stereo not drawn)	/	-30	81	86
CCc1nc2ccccc2n1CCCOc1ccc(Cl)cc1	106	/	53	27
Cc1oc(-c2ccc(Cl)cc2)nc1CN1CCC(C(=O)NC2CCCC2)CC1	103	/	78	88
CCOC(=O)c1ccc(N=C2S/C(=C\c3cc4c(cc3OC)OCO4)C(=O)N2C)cc1	112	-10	105	93
Cc1cccc(CCNC(=O)c2cc(=O)[nH]c3ccc(Br)cc23)c1	101	/	103	88
O=S(=O)(Nc1c(F)cccc1F)c1ccc2c(c1)OCCO2	98	-16	93	86
CN(CC(=O)N1CCCCC1)S(=O)(=O)c1ccc2c(c1)CCCC(=O)N2	104	-18	116	87
CC(=O)N1C(=S)NC(=O)/C1=C\c1c(Cl)cccc1Cl	106	/	90	79
O=C(O)CCCn1cc(NC(=O)c2cccs2)cn1	100	-30	103	94
N#CC(C#N)=CC1=C(N2CCCC2)CCCC1	110	-45	97	83
COc1ccc(OC)c(S(=O)(=O)Nc2cccc(N3CCCS3(=O)=O)c2)c1	102	0	/	/
Cc1nc(-n2[nH]c(C)c(Cc3ccc(Cl)cc3)c2=O)sc1C(=O)N1CCC(C)CC1	101	-28	/	/
CCOC(=O)C1CCCN(C(=O)Cn2c(=O)c3ccccc3n3c(=S)sc(-c4cccc(Cl)c4)c23)C1 (stereo not drawn)	120	-18	/	/
COc1ccccc1Nc1nnc(SCc2ncc(-c3ccccc3)o2)s1	/	1	120	79
COc1ccc(-c2[nH]c(-c3ccc(C)cc3)nc2SCC(=O)NCC2CCCO2)cc1 (stereo not drawn)	103	-14	94	76
CCOC(=O)c1nnc2c(-c3ccc(F)cc3)c(C)nn2c1N	109	-30	108	93
Cc1ccc(NC(=O)CSc2cc(C)c3cc(S(=O)(=O)N4CCCCC4)ccc3n2)cc1Cl	101	-12	/	/
Cc1nnc(N2CCC(C(=O)Nc3ccc(F)cc3)CC2)c2nn(-c3ccc(Cl)cc3)c(C)c12	109	/	114	85
CCc1cc(=S)n2c([nH]c3ccccc32)c1C#N	/	-71	103	59
CCN1/C(=C\C=C2\C(=O)N(C)C(=S)N2C)Sc2ccccc21	270	/	81	85
Cn1c(=O)c2cc(C(=O)NCCC3=CCCCC3)sc2n(C)c1=O	110	-28	/	/
CCc1nc2sc3c(O)cc(=O)[nH]c3c2cc1C	110	-19	98	100
COc1cccc(-c2nn(Cc3ccccc3)cc2CO)c1	/	-3	113	95
CCn1c2c(c(SCc3cccc(C)c3)nc1=O)CCC2	102	-9	/	/
NC(=O)c1cccc(N2C(=O)c3ccccc3C2=O)c1	/	-6	90	87

At a glance, some entries already given:
SMILES	GIV-Gai inh	HCMV UL50-53 inh	Sa growth inh	Sa growth inh second temp
COc1ccc(-c2nnc(SC(C)c3nnc(-c4cccs4)o3)o2)cc1 (stereo not drawn)	/	-30	81	86
CCc1nc2ccccc2n1CCCOc1ccc(Cl)cc1	106	/	53	27
Cc1oc(-c2ccc(Cl)cc2)nc1CN1CCC(C(=O)NC2CCCC2)CC1	103	/	78	88

The main list resumes, repeating the seven entries before the break.
SMILES	GIV-Gai inh	HCMV UL50-53 inh	Sa growth inh	Sa growth inh second temp
CCc1cc(=S)n2c([nH]c3ccccc32)c1C#N	/	-71	103	59
CCN1/C(=C\C=C2\C(=O)N(C)C(=S)N2C)Sc2ccccc21	270	/	81	85
Cn1c(=O)c2cc(C(=O)NCCC3=CCCCC3)sc2n(C)c1=O	110	-28	/	/
CCc1nc2sc3c(O)cc(=O)[nH]c3c2cc1C	110	-19	98	100
COc1cccc(-c2nn(Cc3ccccc3)cc2CO)c1	/	-3	113	95
CCn1c2c(c(SCc3cccc(C)c3)nc1=O)CCC2	102	-9	/	/
NC(=O)c1cccc(N2C(=O)c3ccccc3C2=O)c1	/	-6	90	87
Cc1csc(=O)n1CC(=O)Oc1ccc(Oc2ccccc2)cc1	/	-2	98	98
CC(=O)Nc1sc(C)c(C)c1C(=O)OCn1nnc2ccccc2c1=O	/	-29	76	95
NNc1nc(NN)c2c3c(sc2n1)CCCCC3	104	-38	58	27
Cc1ccc(CN(C(=O)COc2cc(C)c(Cl)c(C)c2)c2ccccn2)o1	104	-28	90	81
Cc1csc2sc(COC(=O)Nc3ccccc3)c(C)c12	102	-8	82	86
COc1ccc(CCNC(=O)CCn2c(=O)c3ccccc3n(Cc3ccccc3F)c2=O)cc1OC	100	-18	93	94
COc1ccc2c(c1)CCc1c-2nc2ccccc2c1N1CCOCC1	112	-9	100	97
Cc1ccc(-n2c(Cc3ccccc3)nnc2SCc2nc(-c3cccs3)no2)cc1C	103	-8	94	83
Cc1cc(S(N)(=O)=O)c2ncccc2c1	/	-34	86	83
O=C(Nc1ccccc1)c1cc2sccc2n1Cc1ccccc1	104	-1	126	84
CCN(CC)S(=O)(=O)c1ccc2c(c1)c(=O)c(C(=O)NCc1ccccc1OC)cn2C	108	4	110	92
FC(F)(F)c1ccccc1NNC(=S)NCC1CCCO1 (stereo not drawn)	/	-31	55	56
Cc1cc(NC(=O)CSc2nc3ccccc3[nH]2)n(-c2ccccc2)n1	94	23	76	89
CCN(CC)c1cc2c(cc1F)c(=O)c(S(=O)(=O)c1cc(C)ccc1C)cn2Cc1ccccc1	102	/	124	115
N#Cc1cccc(NC(=O)Nc2cccn(Cc3ccccc3)c2=O)c1	103	-1	101	91
COc1cccc(C(=O)N(Cc2cccc(F)c2)C2CCS(=O)(=O)C2)c1 (stereo not drawn)	99	-8	112	87
CC(C)=CC1C(C(=O)NCCOc2ccccc2)C1(C)C (stereo not drawn)	101	10	94	93
CCOc1ccc(NC(=O)CSc2ncn[nH]2)cc1	103	-2	93	94
Cc1noc(C)c1CC(=O)O	/	2	103	92
CCOc1cc(C(=O)O)cc(Cl)c1O	/	-40	98	84
N#Cc1c(N)nc2c(c1-c1ccncc1)CCCC2	96	/	91	89
CN(C)c1ccc(/C=C(\C#N)C(N)=O)cc1	/	-118	80	87
CCN1CCN(CCCNC(=O)c2cnn(-c3ccc(C)cc3C)c2C2CCN(C(=O)OC(C)(C)C)CC2)CC1	112	/	115	100
CC(=O)N1CCc2c(sc3nc(SCC(C)C)n(-c4ccc(F)c(Cl)c4)c(=O)c23)C1	104	-15	89	96
Clc1cccc(OCc2nc3c4ccccc4ncn3n2)c1	106	2	/	/
(cont.)
SMILES	GIV-Gai inh	HCMV UL50-53 inh	Sa growth inh	Sa growth inh second temp
COc1ccccc1C(=O)/C=C1\NC(=O)CS1	/	-32	102	92
CCCC1c2cccn2CCN1C(=O)Nc1ccccc1 (stereo not drawn)	109	-4	111	91
Cc1ccc2c(c1)C(c1ccccc1)N(C(=O)c1ccc(OC(C)C)cc1)CC(=O)N2 (stereo not drawn)	108	-17	81	92
Cc1ccc(NC(=O)NC(c2ccccc2)c2nnc(-c3ccccc3)o2)cc1C (stereo not drawn)	99	-2	/	/
Cc1ccc(NCc2cc3cc4c(cc3n(CC(=O)Nc3ccc(C)cc3)c2=O)OCCO4)cc1	106	/	70	79
CCOC(=O)CC1C(=O)NCCN1C(=O)Nc1ccccc1 (stereo not drawn)	106	6	98	94
O=C1CC(NCC2CCCO2)C(=O)N1c1ccccc1 (stereo not drawn)	101	-26	/	/
CCCCN(c1ccccc1)c1ncnc2c1cnn2-c1ccc(Cl)cc1	105	/	97	90
CN(CC1COc2ccccc2O1)S(=O)(=O)c1ccc2c(c1)CCCC(=O)N2 (stereo not drawn)	104	-22	105	91
O=C1CCC2=C(CCCC2=O)N1	102	-12	86	88
Clc1ccccc1-n1cc(-c2ccccc2)c2c(NC3CC3)ncnc21	101	-33	/	/
Cc1ccc(-n2ncc(C(=O)N3CCc4ccccc4C3)c2C2CCN(C(=O)OC(C)(C)C)CC2)cc1C	108	/	96	87
O=C(/C=C/c1cccs1)Nc1cccc(Cl)c1Cl	96	-15	105	80
CCOC(=O)c1ccccc1NC(=O)Nc1cc2c(cc1N1CCCC1)n(C)c(=O)n2C	107	12	90	98
O=C(COc1cccc(-n2cnnn2)c1)N1CCc2ccccc2C1	/	-30	78	93
Cc1cccc(-c2ccc(Nc3ccc(C(=O)NC4CCCCC4)cc3)nn2)c1	102	-12	/	/
CC(=O)Nc1ccc(S(=O)(=O)N(C)CC(=O)OCc2cc(=O)oc3cc(O)ccc23)cc1	/	-39	59	91
CCOC(=O)C1CCN(C(=O)COC(=O)Cc2ccsc2)CC1	/	-15	89	89
O=C(CSc1nc2c([nH]c3ccccc32)c(=O)n1-c1ccc(F)cc1)NC1CCCCC1	100	/	88	73
Cc1ccc(NC(=O)CSc2nccn2C2CCCC2)cc1Cl	114	/	148	102
COc1ccc(OC)c(CNc2c3c(nc4ncnn24)CCC3)c1	99	-6	/	/
CCCCN(C(=O)c1cc2c(s1)-c1ccccc1OC2)C1CCN(C(C)=O)CC1	100	/	50	27
Cc1ccc(CNC(=O)c2coc(=O)c3ccccc23)o1	105	1	82	83
C=CCSc1nnc2n(-c3ccccc3)c(=O)c3c4c(sc3n12)CCC4	103	-4	92	89
CSC(=NS(=O)(=O)c1cc(Cl)sc1Cl)SC	109	-9	48	68

Next part, overlapping the part above by 2 compounds.
SMILES	GIV-Gai inh	HCMV UL50-53 inh	Sa growth inh	Sa growth inh second temp
C=CCSc1nnc2n(-c3ccccc3)c(=O)c3c4c(sc3n12)CCC4	103	-4	92	89
CSC(=NS(=O)(=O)c1cc(Cl)sc1Cl)SC	109	-9	48	68
Cc1c(C#N)c(N)n(C2CCCCC2)c1C	/	-6	85	88
COc1cccc(CNC(=O)CCC2=NS(=O)(=O)c3ccc(C)cc3N2)c1	107	-34	106	84
Cc1cccc(CNC(=O)CCCN2C(=O)CCn3nc(-c4cccn4C)cc32)c1	109	/	84	89
c1ccc(CSc2nnc3sc4ccccc4n23)cc1	98	-14	87	70
O=C(NCc1ccccc1)c1cccc(N2CCCC2=O)c1	96	-2	104	98
c1ccc2c(c1)OC1c3ccccc3OC3c4ccccc4OC2N31 (stereo not drawn)	106	-15	115	100
COc1cc(/C=N/OCC(=O)NC2CCCCC2)ccc1OC(F)F	/	-4	81	86
O=C1c2[nH]nc(-c3ccc(F)cc3)c2C(c2ccc(Cl)cc2)N1c1ccccc1 (stereo not drawn)	98	-14	/	/
CCOC(=O)c1cc(CC)sc1Nc1nc2ccccc2nc1N1CCOCC1	/	-2	74	92
Cc1nn(C)c2c1c(-c1ccccc1)cc(=O)n2Cc1ccccc1Cl	100	/	79	73
O=C(OCCCCN1C(=O)c2ccccc2C1=O)C1=NN(c2ccccc2)C(=O)CC1	/	-21	92	95
CCc1cc2c(=O)c(-n3cnc4ccccc43)coc2cc1O	/	-22	128	85
O=S(=O)(c1ccc(Cl)cc1)N1CCn2c1nc1ccccc12	100	-18	90	84
O=C(c1cc2ccccc2cc1OCC(=O)N1CCc2ccccc21)N1CCOCC1	/	7	79	93
O=C(CN1CCCC1c1cccs1)NN1C(=O)NC2(CCCCC2)C1=O (stereo not drawn)	/	3	103	100
CCOC(=O)c1ccccc1NC(=O)N1CCC(N2CCN(Cc3ccccc3)C(=O)C2=O)CC1	100	/	136	80
COc1ccc(F)cc1CSc1nnc2nc(C)cc(C)n12	/	-24	89	87
Nc1c(C(=O)NCCC2=CCCCC2)nnn1-c1cccc(C(F)(F)F)c1	104	/	112	92
CCOC(=O)c1c(CN2CCCC2)n(-c2ccccc2)c2cc(Br)c(O)cc12	99	-5	/	/
COC(=O)c1ccc(CNC(C)(C)C)o1	/	-11	98	88
CCN(CC)S(=O)(=O)c1cccc(C(=O)OCC(=O)N2CC(=O)Nc3ccccc32)c1	/	11	117	97
COC(=O)c1ccccc1NC(=O)c1ncoc1-c1ccco1	103	/	88	93
COc1ccccc1OCC(=O)NCC(c1ccc(Br)cc1)c1c[nH]c2ccccc12 (stereo not drawn)	111	3	/	/
O=C1C2CCCC1CC(C(=O)N1CCCCC1)C2 (stereo not drawn)	/	-20	116	75
Cc1cc(C)cc(-n2c(SCC(=O)Nc3nnc(C)s3)nc3c([nH]c4ccccc43)c2=O)c1	100	/	103	86
The listing continues.
SMILES	GIV-Gai inh	HCMV UL50-53 inh	Sa growth inh	Sa growth inh second temp
CCCc1cc(=O)[nH]c(SCC(N)=O)n1	/	-19&11	104&106	86&101
Cc1ccc(CCCOC(=O)CN2CCCC2)cc1	/	-35	96	85
COc1ccccc1N1CCN(S(=O)(=O)c2ccc(-c3coc(C)n3)cc2)CC1	104	/	93	92
CCOc1ccccc1NC(=O)N1CCN(S(=O)(=O)c2ccc3c(ccn3C)c2)CC1	101&99	-10&12	107	81
CCN(C(=O)c1cc(S(=O)(=O)N2CCOCC2)cn1C)c1cccc(C)c1	107	-30	84	85
CCCNC(=O)C1CSC2(CCN(C)CC2)N1C(=O)CC (stereo not drawn)	103	-26	104	96
CN(C)c1ccc(/C=C(\C#N)S(=O)(=O)C(C)(C)C)c(F)c1C#N	107	-30	93	89
CCc1ccc(C(=O)COC(=O)C2(CC(=O)N3CCOCC3)CCCC2)cc1	/	-16	93	92
COc1cc(C2C3=C(CC(C)(C)CC3=O)OC3=C2C(=O)CC(C)(C)C3)ccc1Oc1ccc([N+](=O)[O-])cc1C(F)(F)F	101	2	/	/
Cc1ccc(C(=O)O)cc1-c1ccc(C=C2C(=O)c3ccccc3C2=O)o1	252	-50	86	65
NNC(=O)C1CC1c1ccccc1 (stereo not drawn)	102	-17	103	106
